Assay outcomes: PubChem, several laboratories
INS promoter inh: inhibitors of insulin promoter-driven GFP, primary screen, imaging, TRM-6 cells (human fetal islet line), eGFP reporter, cell count; inhibition, % at 2 µM; AID 1273, 2008; reporter expression induced with tamoxifen; 130,000 tested, 0.9% active;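 active means inhibition above the mean plus 3 SD, with well images judged a real hit on visual review, cut at about 60% in these data, passing the limit was not always enough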
PKD1 inh: inhibitors of human PKD1 kinase, biochemical, fluorescence polarization; Serine/threonine-protein kinase D1 (Homo sapiens), Q15139; PKD1 kinase fluorescence polarization assay; inhibition, %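 (about 10 µM by stock and volumes)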; 200,000 tested, 0.056% active; AID 797, 2007;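 active means inhibition of 50% or more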;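 further: controls were vehicle for no effect and a reference inhibitor for full effect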
RGS16-Gao: modulators of RGS16 binding to Galphao, primary screen, biochemical, human proteins, multiplexed bead flow cytometry. Regulator of G-protein signaling 16 (Homo sapiens) + Guanine nucleotide-binding protein …. binding response (% of control), % at 10 µM. 220,000 tested, 0.38% active. bead-based flow cytometry RGS16-Galphao binding, fluorescence; actives lie on both sides;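 active means below 25% or above 175%, edge rows of some plates excepted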;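 further: Galphao activated by GDP with aluminum fluoride before binding; 100% = wells without compound and 0% = beads without RGS; some results beyond the cut were filed as inactive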
Target sequence (O15492 whole entry, looked up): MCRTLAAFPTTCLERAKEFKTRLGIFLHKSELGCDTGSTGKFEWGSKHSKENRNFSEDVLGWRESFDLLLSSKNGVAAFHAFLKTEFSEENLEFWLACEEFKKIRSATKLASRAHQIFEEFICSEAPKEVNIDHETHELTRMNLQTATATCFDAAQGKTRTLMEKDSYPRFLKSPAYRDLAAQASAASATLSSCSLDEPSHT
Target sequence (P09471 whole entry, looked up): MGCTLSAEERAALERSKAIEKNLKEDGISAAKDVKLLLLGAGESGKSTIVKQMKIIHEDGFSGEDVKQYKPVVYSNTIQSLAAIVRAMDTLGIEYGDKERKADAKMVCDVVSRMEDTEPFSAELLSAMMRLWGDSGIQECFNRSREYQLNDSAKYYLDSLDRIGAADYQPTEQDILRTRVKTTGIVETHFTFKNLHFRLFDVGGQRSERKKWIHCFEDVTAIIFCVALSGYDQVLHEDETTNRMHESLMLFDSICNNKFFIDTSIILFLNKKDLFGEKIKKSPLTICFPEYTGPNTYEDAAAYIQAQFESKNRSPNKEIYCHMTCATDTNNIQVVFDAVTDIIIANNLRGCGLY
HSV replic up: enhancers of HSV replication in host cells, fold increase, host cell viability. HSV replication augmentation in cells. maximum fold increase. 220,000 tested, 0.005% active;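 active means peak rise of 1.5-fold or more in the series; tested in PC3 cells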;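 further: first round at 10 µM; read as green reporter fluorescence; hits show the peak of a series up to 25 µM; 1 = signal of infected wells without compound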
GALR2 ag: GALR2 receptor agonists, primary screen, cell-based; 140,000 tested, 0.48% active; Galanin receptor type 2 (Homo sapiens), O43603; activation, %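 (tested at 5 µM)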; GALR2-expressing cells, agonist activation read-out; AID 803, 2007;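 active means above mean plus 3 SD of all compounds, about 5% in these data, not always enough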;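 further: 0% = vehicle buffer wells and 100% = reference agonist at full effect; tested in CHO reporter cells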
Target sequence (O43603 whole entry, looked up): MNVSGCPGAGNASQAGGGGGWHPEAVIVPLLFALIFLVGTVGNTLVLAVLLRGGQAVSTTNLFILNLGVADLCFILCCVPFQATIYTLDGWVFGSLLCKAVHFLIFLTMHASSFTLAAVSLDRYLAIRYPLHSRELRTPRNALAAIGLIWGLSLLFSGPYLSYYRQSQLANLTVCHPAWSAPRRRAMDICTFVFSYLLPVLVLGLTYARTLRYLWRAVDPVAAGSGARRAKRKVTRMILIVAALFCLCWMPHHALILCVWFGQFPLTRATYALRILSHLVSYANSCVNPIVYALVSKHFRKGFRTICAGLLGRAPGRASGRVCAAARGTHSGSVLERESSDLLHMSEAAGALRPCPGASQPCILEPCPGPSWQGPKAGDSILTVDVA
INS promoter inh cell count: recorded beside INS promoter inh, whose call it bears; normalized cell count, %; measured here: cell count, toxicity; reference of the scale not given here;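 cells exposed to compound for 48 h; stained nuclei by imaging scaled within each plate; lower means fewer cells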
HSV replic up primary fold: also measured in HSV replic up; calls as there; fold increase; compound at 10 µM; measured here: primary screen fold increase 10 uM; tested in PC3 cells;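 GFP signal in the first replicate; 1 = infected wells without compound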
Starred values were filed as active, the others as inactive; i = inactive; x = no result given.

no.	SMILES	INS promoter inh	INS promoter inh cell count	PKD1 inh	RGS16-Gao	HSV replic up	HSV replic up primary fold	GALR2 ag
1	O=C(c1ccc(Cn2c(=O)[nH]c3ccccc3c2=O)cc1)N1CCN(c2ccc(F)cc2)CC1	x	x	-3.1	100.3	i	1.03	1.3
2	O=C(c1ccc2c3n(nc2c1)-c1ccccc1CO3)N1CCOCC1	x	x	x	102.5	i	1.12	x
3	COc1ccc(-n2nc(C)c3sc(C)nc3c2=O)cc1	x	x	x	106.5	i	1.02	x
4	O=C(NCc1ccccc1)C(c1ccco1)N(C(=O)c1ccccn1)c1ccc(F)cc1 (stereo unspecified)	-20.0	79.4	7.5	100.3	i	0.98	x
5	O=S(=O)(c1cnc(Cl)c(Br)c1)N1CCN(c2ncccn2)CC1	x	x	x	102.0	i	0.95	x
6	O=C(CSc1nnc(Cc2ccccc2)o1)Nc1ccc2c(c1)OCO2	10.7	124.0	0.0	104.8	i	1	-3.3
7	COc1ccc(C(C(=O)NC2CCCC2)N(C(=O)c2ccoc2C)c2ccc(C)c(C)c2)cc1 (stereo unspecified)	x	x	-1.6	105.0	i	0.97	0.1
8	OC(CN1CCOCC1)C12CC3CC(CC(C3)C1)C2 (stereo unspecified)	x	x	-17.8	105.7	i	1.1	-0.8
9	Cc1nc(C)c(C(=O)Nc2cccc(C)c2C)o1	x	x	-11.2	98.0	i	0.93	-1.6
10	CCN(CC)CCOc1ncnc2c1oc1ccccc12	0.0	77.2	2.1	146.8	i	0.84	-2.2
11	CC(Cl)C(=O)c1ccc2c(c1)CCN2C(=O)C1CC1 (stereo unspecified)	-21.4	79.9	5.7	108.8	i	0.94	x
12	Cc1c(NC(=O)c2ccco2)cccc1-c1nc2cccnc2s1	x	x	-13.5	101.8	i	0.99	-3.1
13	Clc1ccc(OCc2nc(-c3ccccn3)no2)c(Br)c1	x	x	-11.1	108.8	i	0.85	-0.9
14	CCN1CCN(C(=O)/C=C/c2c(F)cccc2Cl)CC1	37.9	47.8	3.8	57.2	i	1.03	-1.6
15	Cc1ccc(-c2c(C(=O)NNC(=S)NCC3CCCO3)csc2C)cc1 (stereo unspecified)	x	x	-1.2	103.8	i	1.04	x

3 entries out of the list above, sorted by the value under GALR2 ag, descending:
No. | canonical_smiles | PKD1 inh | RGS16-Gao | HSV replic up primary fold | GALR2 ag
1 | O=C(c1ccc(Cn2c(=O)[nH]c3ccccc3c2=O)cc1)N1CCN(c2ccc(F)cc2)CC1 | -3.1 | 100.3 | 1.03 | 1.3
10 | CCN(CC)CCOc1ncnc2c1oc1ccccc12 | 2.1 | 146.8 | 0.84 | -2.2
6 | O=C(CSc1nnc(Cc2ccccc2)o1)Nc1ccc2c(c1)OCO2 | 0.0 | 104.8 | 1 | -3.3

Nothing new here: an excerpt of the list.
no.	SMILES	INS promoter inh	INS promoter inh cell count	PKD1 inh	RGS16-Gao	HSV replic up	HSV replic up primary fold	GALR2 ag
5	O=S(=O)(c1cnc(Cl)c(Br)c1)N1CCN(c2ncccn2)CC1	x	x	x	102.0	i	0.95	x
6	O=C(CSc1nnc(Cc2ccccc2)o1)Nc1ccc2c(c1)OCO2	10.7	124.0	0.0	104.8	i	1	-3.3

New compounds follow:
no.	SMILES	INS promoter inh	INS promoter inh cell count	PKD1 inh	RGS16-Gao	HSV replic up	HSV replic up primary fold	GALR2 ag
16	CCOc1ccc(NC(=O)CSc2nnc(Cn3c(=O)sc4ccccc43)n2C)cc1	x	x	-0.9	101.8	i	1.35	-1.1
17	C[C@@H](Oc1ccccc1)c1nnn(Cc2ccccc2)c1-c1c([C@@H](C)Oc2ccccc2)nnn1Cc1ccccc1	x	x	x	102.2	i	1.11	x
18	O=C(NCc1ccc(F)cc1)C(c1ccccc1)N(CC1CCCO1)C(=O)Cn1nnc2ccccc21 (stereo unspecified)	-24.1	92.6	-6.2	36.8	i	0.97	-2.4
19	CCN(Cc1ccccc1)Cc1cccc([N+](=O)[O-])c1	x	x	-7.0	102.2	i	1.07	-0.7
20	COc1ccc2c(c1)c(CC(=O)Nc1ccc(C)cc1)c(C)n2C(=O)c1ccc(Cl)cc1	14.3	175.0	-3.0	103.9	i	1	-0.9
21	Cc1c(Cl)c([N+](=O)[O-])nn1Cc1ccc(C(=O)Nc2ccc(Cl)cn2)o1	-3.2	132.7	-0.4	65.5	i	1.04	0.2
22	O=C(Nc1nccs1)NC1CCCCC1	7.1	101.6	1.8	99.4	i	0.92	-0.7
23	CCC(COC(=O)Nc1cccc(C)c1C)NC(=O)OCC(C)C (stereo unspecified)	-10.3	76.5	9.3	109.1	i	1.08	-3.4
24	O=C1CCCCCN1Cc1nnc(SCc2nc3ccccc3s2)n1-c1ccccn1	14.3	106.4	-0.7	108.3	i	0.91	-0.1
25	CCc1ccc(N2C(=O)c3cc(N4CCOCC4)c([N+](=O)[O-])cc3C2=O)cc1	-8.6	157.6	1.9	100.3	i	0.96	-0.9
26	CC(C)c1ccc(NC(=O)CCNS(=O)(=O)c2cccc3nsnc23)cc1	x	x	5.5	99.9	i	1.06	-1.5
27	O=S1(=O)CC/C(=N\Nc2ccccc2)c2ccsc21	x	x	3.9	93.5	i	0.93	x
28	CC(O)C1C(=O)OC2(C)CC(C)(C)NC(=S)N12 (stereo unspecified)	31.2	140.4	5.5	111.9	i	0.71	-2.9
29	COCCCNC(=O)CSc1nc2ccc(N3CCOCC3)cc2c(=O)n1CCc1ccccc1	30.0	87.5	-3.7	x	i	0.81	-3.5
30	CCOc1ccc2ccccc2c1C(=O)Nc1cc(=O)n(C)c(=O)n1C	x	x	-1.1	94.1	i	1.03	-1.1
31	C/C(=N/NS(=O)(=O)c1ccc(C)cc1)c1ccc(NC(=O)C(F)(F)F)cc1	-6.7	83.5	6.4	103.1	i	0.99	-1.4
32	O=C(O)Cn1c(C(F)(F)F)nc2ccccc21	-110.8	122.2	-1.5	77.0	i	1.12	-3.4
33	CN(C)S(=O)(=O)c1cccc(NC(=O)COC(=O)c2cn(-c3ccccc3)nc2-c2ccccc2)c1	-7.7	41.4	0.5	58.2	x	x	-1.2
34	CCc1ccc(-c2nn(-c3ccccc3)cc2C2SCC(=O)N2Cc2ccco2)cc1 (stereo unspecified)	-9.6	95.6	2.8	106.0	x	x	-1.1
35	O=C(/C=C/c1cccc([N+](=O)[O-])c1)N1CCN(c2ccccc2F)CC1	7.1	101.2	-0.1	101.0	i	0.92	-0.6
36	Cc1cc(=O)n2ccccc2c1C#N	3.7	56.6	-5.2	103.0	i	0.96	-1.7
37	CCN1CCN(c2cc(C)c3cc(NC(=O)c4ccc(OC)c(OC)c4)ccc3n2)CC1	x	x	-6.1	105.2	i	0.6	-3.3
38	O=C(c1ccc(Cl)cc1)N1CCc2c([nH]c3ccccc23)C1C(F)(F)F (stereo unspecified)	x	x	x	97.8	i	0.91	x
39	CCOc1ccc(N2C(=O)CC(Sc3nc(-c4cccs4)cc(C(F)(F)F)c3C#N)C2=O)cc1 (stereo unspecified)	-18.9	138.0	-11.6	99.6	i	1.06	-2.7
40	O=C(Nc1ccccc1)c1ccccc1O	-19.4	97.4	8.6	103.2	i	0.82	-2.5
41	CCOc1ccc(N2C(=O)c3ccc(C(=O)OCC(=O)N(CC)C4CCS(=O)(=O)C4)cc3C2=O)cc1 (stereo unspecified)	x	x	-0.5	97.4	i	0.89	x
42	C=CCOC(=O)CSCC(NC(=O)OC(C)(C)C)C(=O)OCC (stereo unspecified)	-10.0	70.7	0.7	92.8	i	0.83	-0.8
43	CN1CCCN(C(=O)CNC(=O)Cc2ccccc2)CC1	x	x	-1.2	104.0	i	0.83	x
44	Cc1cc(Cl)ccc1OCC(=O)N[C@@H](Cc1ccccc1)c1nc2ccccc2[nH]1	-33.3	114.9	-5.6	56.9	i	0.9	1.6
45	CCOc1ccccc1OCCCC(=O)Nc1nc2ccccc2[nH]1	-28.6	103.7	-6.8	108.8	i	1.1	x
46	COCCNC(=O)c1ccc(C)cc1C	x	x	-0.7	97.5	i	0.9	x
47	CC1(C)CC2CC(C)(CN2S(=O)(=O)c2ccc(C(=O)Nc3cc(S(=O)(=O)N4CCOCC4)ccc3Cl)cc2)C1 (stereo unspecified)	68.0	81.8	-7.1	139.6	i	0.89	-0.6
48	Cn1c(N/N=C/c2ccccc2)nc2sc3c(c2c1=O)CCC3	-23.3	116.5	-3.0	98.3	i	0.93	0.2
49	CCC1(CC)Cc2ccccc2-c2nc(-c3ccccc3)oc(=O)c21	9.4	100.0	4.2	84.1	i	0.9	-0.3
50	CC(C)c1ccc(NC(=O)C2CCCN(S(=O)(=O)c3cnc[nH]3)C2)cc1 (stereo unspecified)	x	x	4.1	124.1	i	0.82	-0.9
51	Cc1nc(-c2ccccc2)nc(Cl)c1Cl	x	x	-5.8	99.5	i	0.97	x
52	O=c1[nH]c(/C(Cl)=C/c2cccc(F)c2)nc2cc(C(F)(F)F)ccc12	27.3	88.5	-4.9	98.2	i	0.86	x
53	CC(C)(C)C1(C)OC(C(=O)NC2CCCCC2)C(C(=O)NC2CCCCC2)O1 (stereo unspecified)	0.0	60.0	-0.1	107.3	i	0.96	-1.1
54	O=C(c1ccco1)N1CCN(c2ncnc3c2nnn3Cc2ccccc2Cl)CC1	-6.2	147.5	-6.4	101.7	i	0.95	-1.7
55	COc1ccc(/C(C)=N/NC(=O)CNC(=O)Cc2ccccc2)c(OC)c1	x	x	x	93.0	i	0.76	x
56	Cn1cccc1/C=N/NC(=O)c1ccc(OC(F)(F)C(F)F)cc1	-1.6	164.5	-14.5	113.8	i	0.95	-1.4
57	COC(=O)c1cc(OC)c(OC)cc1NC(=O)c1ccc(OC)cc1	x	x	-5.5	108.5	i	0.82	-2.4
58	O=c1c(C=NCCCn2ccnc2)c(-c2ccccc2)[nH]n1-c1nc2ccccc2s1	-204.8	75.7	1.9	129.5	i	1.09	-1.1
59	Cc1ccc2oc(=O)cc(/C=C/c3ccccc3)c2c1	7.7	97.4	-14.7	110.1	i	0.91	0.0
60	NNC(=O)C(Cc1ccccc1)NC(=O)OCc1ccccc1 (stereo unspecified)	35.0	65.9	-0.1	47.7	i	0.89	x
61	CCOC(=O)c1ccccc1NC(=O)Cc1sc(-c2cccnc2)nc1-c1ccc(C)cc1	24.0	91.9	-3.8	103.6	i	0.88	-0.2
62	CCNc1nc(NCC)nc(N(C)n2cnnc2)n1	6.5	116.6	-6.2	100.1	i	0.91	-2.7
63	COCCOC(=O)c1c(NC(=O)CN2c3ccccc3CC2C)sc(C(N)=O)c1C (stereo unspecified)	x	x	-6.9	102.8	i	0.88	x
64	Cc1ccc(Oc2ccc(C(F)(F)F)cc2[N+](=O)[O-])c([N+](=O)[O-])n1	x	x	x	100.5	i	0.96	x
65	Cc1nn(C)c(C)c1/C=N/NC(=O)C(C)(C)Oc1ccc(Cl)cc1	10.1	171.6	2.4	87.5	i	1.29	-1.9
66	Cc1cc(C)c(S(=O)(=O)NCC(=O)O)cc1C	-25.0	92.2	-4.5	112.4	i	0.92	-2.1
67	Clc1ccc(-c2nc(-c3ccccn3)no2)cc1Cl	21.2	105.7	4.2	97.8	i	0.93	-2.1
68	CC(=O)NC1=NN(C(C)=O)C(C)(c2ccc(C)cc2)S1 (stereo unspecified)	-8.0	141.2	-12.2	102.8	i	0.95	-0.2
69	Fc1cccc(Nc2cc(-n3cccn3)ncn2)c1	9.5	170.8	-5.0	99.3	i	0.89	-1.6
70	CC(=O)NC(Cc1ccccc1)C(=O)NC1CCN(C(=O)c2cnccn2)CC1 (stereo unspecified)	-34.5	106.9	-2.3	92.6	i	1.06	-1.1
71	Cn1c2ccccc2c(=O)c2c(=O)n(-c3ccccc3)c(-c3ccc(C(C)(C)C)cc3)nc21	x	x	x	105.7	i	0.92	x
